NPYLR7 agonist: mosquito NPYLR7 agonism | HEK293T NPYLR7/Galpha15, GCaMP6s calcium fluorescence | activation, % at 10 µM | AID 1259423 | actives 0.15% (n = 270,000); in the data active means activation above about 40%;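 further: 0% = vehicle and 100% = reference agonist at the receptor; some compounds past the cut are filed as inactive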
NPYLR7 agonist max-min: recorded beside NPYLR7 agonist, whose call it bears; activation, %; measured here: Max-Min RFU normalised activation; some inactives read as strong as hits;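 span of the calcium signal over five minutes; 0% = vehicle and 100% = native peptide agonist; compound fluorescence can raise it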
* hit, by the source's call; & = joins results of further samples.

1. O=C(CCC1CCCCC1)NC1=NCCS1
2. Cc1ncccc1C(=O)N1CCCC(CNC(=O)c2ccc(-c3ccccc3)cc2)C1 (stereo unspecified)
3. CC(=O)C1=C(O)C=C(c2ccco2)CC1c1ccco1 (stereo unspecified)
4. CC(C)(O)C#Cc1ccc(-c2nccn2CCc2cnc[nH]2)s1
5. COc1cc(C(O)c2nc(-c3ccoc3)cs2)ccc1F (stereo unspecified)
6. Cc1ccn2c(=O)nc(SCC(=O)Nc3cccc(C)c3C)nc2c1

compound no. | 1 | 2 | 3 | 4 | 5 | 6
NPYLR7 agonist | 2 | 8&16 | 4 | 3 | 8 | 2
NPYLR7 agonist max-min | 2 | 9&14 | 0 | 0 | 4 | 2

7. CCC(NCc1cn(-c2ccc(F)cc2)nc1-c1ccccc1Cl)c1ccncc1 (stereo unspecified)
8. O=C(COC(=O)C1CCN(C=CC(=O)C(F)(F)F)CC1)NC12CC3CC(CC(C3)C1)C2
9. Cc1ccc(-n2nc(C(=O)NCC3CCCO3)c(=O)n(Cc3ccccc3C)c2=O)cc1F (stereo unspecified)
10. O=C(Cc1ccc(F)cc1)N(CCCn1ccnc1)c1nc2ccc(F)cc2s1
11. O=C(COc1coc(CN2CCc3ccccc3C2)cc1=O)NCc1ccc(F)cc1
12. COC(=O)[C@@H](NC(=O)c1ocnc1C)C(C)(C)C

compound no. | 7 | 8 | 9 | 10 | 11 | 12
NPYLR7 agonist | 14 | 10 | 0 | -3 | -2 | 10
NPYLR7 agonist max-min | 13 | 9 | 7 | -10 | 13 | 7

13. CC(=O)Nc1ccc(C(=O)N2CCN(Cc3cc(=O)c(OCc4ccc(C(F)(F)F)cc4)co3)CC2)cc1
14. CC(C)OC(=O)CCC/C=C\C[C@@H]1[C@@H](/C=C/C(O)COc2cccc(C(F)(F)F)c2)[C@H](O)C[C@@H]1O (stereo partly specified)
15. CC(=O)Nc1ccc(-c2ccc(S(=O)(=O)N3CCN(CC(F)(F)F)CC3)cc2)cc1
16. Cc1ccc(F)cc1-c1ccccc1C(N)=O
17. COc1cc(C(=O)Nc2cccc(N3CCCC3=O)c2)c([N+](=O)[O-])cc1OC(F)F
18. CCOc1cccc2cc(C(N)=O)c(=Nc3ccccc3C)oc12

compound no. | 13 | 14 | 15 | 16 | 17 | 18
NPYLR7 agonist | -2 | 3 | 1 | 9 | 11 | -9
NPYLR7 agonist max-min | 1 | 4 | -1 | 5 | 14 | -11

19. CN(C)S(=O)(=O)Nc1ccc(N2CCC(NCC3(c4ccccc4)CCOCC3)CC2)cc1
20. O=C(O)c1cc(I)cc(I)c1O
21. O=c1c2ccccc2cnn1C1CCS(=O)(=O)C1 (stereo unspecified)
22. Cc1cccc(C(=O)Nc2c3c(nn2-c2ccccc2)CS(=O)(=O)C3)c1
23. CCOc1ccc2nc(N3CCCC3C(=O)NCC(C)(C)N3CCOCC3)nc(C)c2c1 (stereo unspecified)
24. CN1C(=O)c2ccccc2NC12CCN(C(=O)c1ccoc1)CC2

compound no. | 19 | 20 | 21 | 22 | 23 | 24
NPYLR7 agonist | -6 | 10 | 21 | 0 | -2 | 10
NPYLR7 agonist max-min | -11 | 2 | 19 | -2 | -4 | 8

25. Cc1c(C)n2c3c(=O)n(CCN4CCCCC4)c(=O)n(C)c3nc2n1CC1CCCO1 (stereo unspecified)
26. O=C(Nc1ccc(F)cc1F)c1ccc(N2CCOC2=O)cc1
27. CC(C)n1c(N/N=C\c2ccc(Br)cc2)nc2c1c(=O)[nH]c(=O)n2C
28. COCCNC(=O)c1coc(CN(Cc2ccc(OC)cc2OC)C(C)C)n1
29. Cc1c(C(=O)N(C)Cc2ccc(F)cc2)sc(=O)n1CCN1CCCC1
30. Cc1ccc(C(=O)NC(=O)CSc2n[nH]c(N)n2)cc1

compound no. | 25 | 26 | 27 | 28 | 29 | 30
NPYLR7 agonist | 7 | -2 | -3 | -13 | -8 | -13
NPYLR7 agonist max-min | 6 | -3 | -4 | 6 | -3 | -24

31. COc1ccc(NC(=O)Nc2nc([C@@H]3C[C@H](O)[C@@H](CO)O3)cs2)cc1OC1CCCC1
32. Cc1ccc(CNC(=O)c2ccc(-c3n[nH]c4c3CCCc3ccccc3-4)cc2)o1
33. c1ccc(CSc2ccc(-c3ccc(-n4cccn4)cc3)nn2)nc1
34. COCc1ccc(C(=O)Nc2cc(C(N)=O)ccc2N2CCCCC2C)o1 (stereo unspecified)
35. COc1cccc(C(C2Sc3ncnn3C2=O)N2CC(C)OC(C)C2)c1 (stereo unspecified)
36. CN(C)Cn1c(O)c(N=NC(=O)c2ccccc2Cl)c2ccccc21

compound no. | 31 | 32 | 33 | 34 | 35 | 36
NPYLR7 agonist | -1 | 0 | -3 | 5 | 2 | 3
NPYLR7 agonist max-min | 21 | 11 | -7 | 6 | 0 | 1

37. CN(C(=O)c1ccnc(F)c1)C1CCN(c2ccccc2Cl)C1=O (stereo unspecified)
38. Cc1ccc2c(c1)C1(SCCN1C(=O)c1ccc(F)cc1)C(=O)N2Cc1ccccc1Cl (stereo unspecified)
39. Cc1ccc(NC(=O)Cn2ccnc2S(C)(=O)=O)c(Cl)c1
40. O=C(CSC1=NC2CCCCC2N1)N1CCOCC1 (stereo unspecified)
41. CC(NC(=O)c1ccc([N+](=O)[O-])o1)C1CC2CCC1C2 (stereo unspecified)
42. CN(C(=O)Cn1cccn1)C1CCCN(CCc2ccccc2)C1 (stereo unspecified)

compound no. | 37 | 38 | 39 | 40 | 41 | 42
NPYLR7 agonist | 8 | 18 | -14 | -2 | 16 | 6
NPYLR7 agonist max-min | 3 | 19 | -19 | 2 | 6 | 4

43. COc1ccc(-c2noc(-c3cc(OC)c(OC)c(OC)c3)n2)cc1
44. C=CCn1cnc2c(nnn2-c2ccc(C)c(C)c2)c1=O
45. CSCCC1CC(=O)Nc2c1c(C(C)C)nn2-c1ccccc1 (stereo unspecified)
46. Cc1ccccc1CN1CCC(CN(CC2CCCO2)C2CCSCC2)CC1 (stereo unspecified)
47. O=C(Cn1nnc(-c2ccc(F)cc2)n1)N1CCN(c2ccc(Cl)cc2[N+](=O)[O-])CC1
48. Cc1ccc(C(=O)N(CC2CCN(CCc3ccccc3C)CC2)C2CCCC2)cn1

compound no. | 43 | 44 | 45 | 46 | 47 | 48
NPYLR7 agonist | 0 | -4 | -4 | 0 | 8 | 14
NPYLR7 agonist max-min | 7 | -7 | -8 | -3 | 5 | 3

49. CN=c1scc(-c2cc3ccccc3o2)n1N=Cc1ccc(C#N)cc1
50. CCOC(=O)c1c(NC(=O)CN2CCOCC2)sc(C)c1-c1ccc(C)cc1
51. CC(=O)NCCC1=CCCN(Cc2cccc3ccccc23)C1
52. COc1ccc(C(=O)NNc2nc(-c3ccccc3)c3cc(Br)ccc3n2)cc1
53. CC(C)N1CCC(NS(=O)(=O)c2ccccc2-c2ccccc2)C1 (stereo unspecified)
54. COC(=O)c1sccc1S(=O)(=O)Nc1ccc(Cl)cc1F

compound no. | 49 | 50 | 51 | 52 | 53 | 54
NPYLR7 agonist | 2 | 8 | 11 | -8 | 3 | 7
NPYLR7 agonist max-min | -1 | 5 | 7 | -13 | 0 | 6

Looked up by compound from the entries so far (5):
54. COC(=O)c1sccc1S(=O)(=O)Nc1ccc(Cl)cc1F
52. COc1ccc(C(=O)NNc2nc(-c3ccccc3)c3cc(Br)ccc3n2)cc1
49. CN=c1scc(-c2cc3ccccc3o2)n1N=Cc1ccc(C#N)cc1
53. CC(C)N1CCC(NS(=O)(=O)c2ccccc2-c2ccccc2)C1 (stereo unspecified)
51. CC(=O)NCCC1=CCCN(Cc2cccc3ccccc23)C1

compound no. | 54 | 52 | 49 | 53 | 51
NPYLR7 agonist | 7 | -8 | 2 | 3 | 11
NPYLR7 agonist max-min | 6 | -13 | -1 | 0 | 7

The listing continues.
55. O=C(NC1CCSC1)c1cc(CN2CCC(Cc3ccccc3)CC2)on1 (stereo unspecified)
56. Cc1cccc(C(=O)NCN2CCN(c3ccccc3C#N)CC2)c1
57. CS(=O)(=O)Nc1ccc(O)c(Cl)c1
58. Cn1cnnc1CNC(=O)Nc1ccc2nc(C(C)(C)C)sc2c1
59. Cc1cc(Cl)ccc1NC(=O)CCn1ccnn1
60. CCc1cccc2c(C(CC(=O)NCCC(c3ccccc3)c3ccccc3)c3ccccc3Cl)c[nH]c12 (stereo unspecified)

compound no. | 55 | 56 | 57 | 58 | 59 | 60
NPYLR7 agonist | 11 | -4 | 9 | -2 | 4 | -2
NPYLR7 agonist max-min | 1 | 27 | 9 | -2 | 7 | -1

61. COc1ccc(-c2nc(N(CCC(=O)NCc3cccc(C(F)(F)F)c3)Cc3ccccc3)c3ccccc3n2)cc1
62. CCOc1ccc(CNC(=O)N2CCC3(CCOCC3)C2)cc1C
63. COc1cccc(CN(C(=O)C(C)C)C2CC2)c1OCc1nc(CO)cs1
64. CCOCCOCC(O)CNc1ccccc1 (stereo unspecified)
65. CCCCCC(=O)Nc1ccc(N2CCN(c3ccccc3OC)CC2)c(C(=O)N2CCCC2)c1
66. CCSc1nc2ccccc2n1CC(=O)Nc1ccc(F)cc1

compound no. | 61 | 62 | 63 | 64 | 65 | 66
NPYLR7 agonist | 7 | 7 | 22 | 9 | -1 | 3
NPYLR7 agonist max-min | 7 | 5 | 14 | 7 | 9 | 1

67. Cc1cc(C)n2c(Br)c(CSc3nc4cc([N+](=O)[O-])ccc4s3)nc2n1
68. CC(C(=O)NCC1CCCCC1)S(=O)(=O)c1nc2ccccc2[nH]1 (stereo unspecified)
69. Cc1ccnc(-n2c(SCC(=O)NC3CC3)nc3ccccc3c2=O)c1
70. FC(F)(F)CCc1ccnc(NCc2ccccc2-n2ccnc2)n1
71. Cc1csc2nc(Cn3cnc4sc5c(c4c3=O)CCC(C)C5)cc(=O)n12 (stereo unspecified)
72. O=C(CC1CCCC1)NCCN1C(=O)SC(=Cc2ccccc2)C1=O

compound no. | 67 | 68 | 69 | 70 | 71 | 72
NPYLR7 agonist | -2 | -3 | 6 | 18 | 8 | 2
NPYLR7 agonist max-min | -3 | -5 | 3 | 17 | 4 | 37

73. Cc1cc(C(=O)N2CCC(C)CC2)nc2cc(C(C)(C)C)nn12
74. CC1CS(=O)(=O)CCN1N=Cc1ccc([N+](=O)[O-])o1 (stereo unspecified)
75. CC(C)n1ccc(CN2CCCC(CNC(=O)C3CCC3)C2)c1 (stereo unspecified)
76. CCOC(=O)CC1=C(C(=O)OCC)C(c2ccc(OC)cc2)C(C#N)C(=N)O1 (stereo unspecified)
77. Cc1cnc(NS(=O)(=O)c2ccc(CCC(C)C)cc2)o1
78. COc1ccccc1-n1c(SCc2ccccc2C)nc2c(c1=O)SCC2

compound no. | 73 | 74 | 75 | 76 | 77 | 78
NPYLR7 agonist | 2 | 14 | -1 | -2 | 4 | 0
NPYLR7 agonist max-min | 6 | -2 | -1 | -8 | 4 | 1

79. O=C(CC1COCCN1)N1CCC(OCc2cccnc2)CC1 (stereo unspecified)
80. CC(C)c1ccc(-c2cc(C(=O)O)[nH]n2)cc1
81. COCCn1c(C(=O)NCCC(C)C)cc2c(=O)n(C)c(=O)n(C)c21
82. CCN(Cc1cccs1)S(=O)(=O)c1ccc(C(=O)OC)cc1
83. CCOC(=O)c1cnc2cc(C(F)(F)F)ccc2c1Nc1ccccc1C(N)=O
84. CN1C[C@@H](NC(=O)c2cncnc2)C[C@H]1c1nc(-c2cnccn2)no1

compound no. | 79 | 80 | 81 | 82 | 83 | 84
NPYLR7 agonist | 17 | -7 | 0 | 2 | -3 | -5
NPYLR7 agonist max-min | 14 | -8 | 1 | 3 | -4 | -8

85. CC(C)C(Sc1nncn1-c1ccccc1)C(=O)NCc1ccccc1 (stereo unspecified)
86. COc1ccc(CN2C(=O)N(Cc3ccccc3F)c3ccccc3S2(=O)=O)cc1
87. CCC(C)(C)OCC(O)CN1C(C)(C)CC(O)CC1(C)C (stereo unspecified)
88. CCOC(=O)C1CNC(=S)NC1(C)O (stereo unspecified)
89. C/C=C/C(=O)N1c2ccc(C)cc2C(=C2SC(C(=O)OC)=C(C(=O)OC)S2)C(=S)C1(C)C
90. Cc1cc(C)c2nc(N(CCn3cccn3)C(=O)C3=COCCO3)sc2c1

compound no. | 85 | 86 | 87 | 88 | 89 | 90
NPYLR7 agonist | -6 | 3 | 2 | 3 | -9 | -19
NPYLR7 agonist max-min | -7 | 6 | 18 | 37 | -12 | -24

91. CCN(Cc1noc(C)n1)C(=O)CCc1c[nH]c2ccccc12
92. CNC(=O)CC(C)N(C)Cc1ccc(C(F)(F)F)nc1 (stereo unspecified)
93. C=CCOc1ccccc1C(=O)NCC1(N(C)C)CCCC1
94. Cc1oc(C(C)C)cc1C(=O)N1CCN(C)C2(CCN(C)CC2)C1
95. CN(C(=O)CCNC(=O)CC1C=CCC1)c1ccccc1 (stereo unspecified)
96. CCCNC(=O)c1ccc(Cl)cc1NC(=O)CCCn1cncn1

compound no. | 91 | 92 | 93 | 94 | 95 | 96
NPYLR7 agonist | 10 | 8 | 3 | 3 | -2 | -1
NPYLR7 agonist max-min | 8 | 5 | 0 | 2 | -2 | -2

97. O=C1c2ccccc2C(=O)N1CCCCN(C(=O)c1ccc(Br)cc1)c1ccc(F)cc1F
98. CCCc1ccccc1N1C(=O)CSC1c1cccc(NC(=O)Cc2cccs2)c1 (stereo unspecified)
99. O=C(Cc1cccs1)NN=Cc1ccccc1[N+](=O)[O-]
100. CCCCc1ccc(S(=O)(=O)NC(=O)C2(C)CCN2C(=O)CCc2cccs2)cc1 (stereo unspecified)
101. Cc1nnc(SCCCn2cnc(-c3ccccc3)c2C2CCOC2)s1 (stereo unspecified)
102. O=C1CSC2(C(=O)Nc3ccccc32)N1c1cccc(Cl)c1 (stereo unspecified)
103. O=C(c1ccccc1Oc1ccccc1)N1CCCC1c1nnc2c(C(F)(F)F)cccn12 (stereo unspecified)

compound no. | 97 | 98 | 99 | 100 | 101 | 102 | 103
NPYLR7 agonist | -7 | -2 | 0 | 2 | 1 | 7 | -6
NPYLR7 agonist max-min | -14 | 0 | -3 | 1 | 0 | 5 | -10

A portion of the library; rates above refer to the full screens.
